VDR inhibitor: vitamin D3 receptor (human) inhibition | 400,000 tested, 0.93% active | Potency, µM, for the others: max response, negative = inhibition, usual class: inhibitors | VDR-SRC2-3 peptide fluorescence polarization, 2 h; active = well fitted inhibition curve with a large enough effect; inconclusive = small, poorly fitted or top-dose-only effect, or another doubt; inactive = no such curve, though single readings can be large or run the other way; note: series mostly up to about 120 µM
Target sequence (P11473 whole entry, looked up): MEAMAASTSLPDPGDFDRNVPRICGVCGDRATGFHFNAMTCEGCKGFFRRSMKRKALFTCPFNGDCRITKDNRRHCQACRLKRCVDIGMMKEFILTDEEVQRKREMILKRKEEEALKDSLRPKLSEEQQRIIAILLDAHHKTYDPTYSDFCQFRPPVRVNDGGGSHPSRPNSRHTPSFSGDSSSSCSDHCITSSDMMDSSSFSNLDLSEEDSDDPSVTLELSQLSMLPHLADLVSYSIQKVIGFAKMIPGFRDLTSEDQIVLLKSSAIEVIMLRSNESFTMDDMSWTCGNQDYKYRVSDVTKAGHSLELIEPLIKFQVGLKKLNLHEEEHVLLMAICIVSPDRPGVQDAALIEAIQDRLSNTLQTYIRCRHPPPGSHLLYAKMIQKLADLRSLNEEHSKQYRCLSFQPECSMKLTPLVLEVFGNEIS
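The screen uses fluorescence polarization to detect compounds that interfere with recruitment of the SRC2-3 coactivator peptide to VDR; plates are read after 2 h at room temperature.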
Numbers without * were called inactive; ? = inconclusive; & = joins results of further samples. % is set by controls: 0 for no effect and ±100 for the full control effect; potency is the fitted concentration of half-maximal effect. A portion of the library (hit frequency here may not be typical).

#	canonical_smiles	VDR inhibitor
1	Cc1ccc(NC(=O)NCc2cccn2Cc2ccccc2)cc1F	10%
2	Cn1cccc1-c1cc(C(=O)O)[nH]n1	12%
3	CC1CC(C)CN(C(=O)CCNS(=O)(=O)c2ccc3c(c2)CCC(=O)N3)C1 (stereo not given)	-14%
4	O=C(NCc1ccccn1)c1cccc(S(=O)(=O)Nc2ccccc2Cl)c1	-5%
5	O=C(Nc1ccc2c(c1)C(=O)N(CC1CCCO1)C2=O)c1ccccc1Br (stereo not given)	-13%
6	NS(=O)(=O)c1ccc(CCNC(=O)c2ccc([N+](=O)[O-])cc2[N+](=O)[O-])cc1	-7%
7	CCCn1nc(C(=O)Nc2ccc(S(=O)(=O)Nc3ncccn3)cc2)c2ccccc2c1=O	28%
8	Nc1nc(Oc2ccc(F)cc2)c(Br)c(=O)[nH]1	-2%
9	Cc1cc(-c2nc3ncccc3o2)ccc1N	16%
10	CCN(CC(=O)Nc1ccc(NC(C)=O)cc1)C(=O)c1cc(CN2C(=O)c3ccccc3C2=O)ccc1OC	4%
11	COc1ccc(-c2noc(N3CCC(C(=O)Nc4ccc(OC)c(OC)c4)CC3)n2)cc1	-13%&20%
12	COc1cc(OC)cc(C(=O)NC(C(=O)NCc2ccccn2)C(C)C)c1 (stereo not given)	3%

Structures shown so far that contain fluorine:
#	canonical_smiles	VDR inhibitor
1	Cc1ccc(NC(=O)NCc2cccn2Cc2ccccc2)cc1F	10%
8	Nc1nc(Oc2ccc(F)cc2)c(Br)c(=O)[nH]1	-2%

(next part)
#	canonical_smiles	VDR inhibitor
13	Cc1ccccc1NC(=O)c1cnn(-c2ccccc2)c1C	-14%
14	N=C1/C(=C/c2ccc(Br)o2)C(=O)N=C2SC(CC(=O)N3CCCC3)=NN12	6%
15	O=C(c1ccc(OC2CCN(CCc3ccccc3)CC2)cc1)N1CCCC1	11%
16	Cc1cc(NC(=O)CSCC(=O)Nc2cc(C(F)(F)F)ccc2N2CCCCC2)no1	0%
17	CN(CC(=O)Nc1ccc(F)c(Cl)c1)S(=O)(=O)c1ccc2c(c1)n(C)c(=O)c(=O)n2C	-9%
18	CCc1nnc(NS(=O)(=O)c2ccc(NC(=O)c3ccc(Cl)cc3)cc2)s1	-13%
19	COc1cccc2c1OC(=O)CC2c1ccccc1C (stereo not given)	-3%
20	OC(COc1ccc2c(c1)OCO2)CN1CCN(c2ccc(F)cc2)CC1 (stereo not given)	12%
21	Cc1ccc(OCc2cc(C(=O)NCc3cnn(-c4cccc(F)c4)c3)no2)cn1	-9%
22	CC(C)C1N(C(N)=S)N=CC1(C)C (stereo not given)	-9%
23	C=CCN1c2ccccc2[C@]23C[C@@H](C(=O)OC)N(C(=O)c4cc(C)oc4C)C2=NC(C(=O)OC)=C(C(=O)OC)[C@H]13	-28%
24	Cc1cccc(-n2ncc3c(Nc4ccc(F)cc4)ncnc32)c1	-4%
25	Cc1ccccc1CS(=O)(=O)c1ncc(Cl)c(C(=O)Nc2ccc(F)cc2)n1	-23%
26	Cc1cn(S(=O)(=O)c2ccc(Cl)cc2)c(C)n1	-13%
27	O=C(Nc1ccc(C(=O)O)cc1)/C(=C\c1ccc2c(c1)OCO2)NC(=O)c1ccc(Br)o1	-18%
28	O=C(Cc1cccc2ccccc12)N/N=C/C=C/c1cccc([N+](=O)[O-])c1	-8%
29	Cc1[nH]c2ccccc2c1CCN(Cc1cccnc1)C(=S)Nc1cccc(F)c1	-2%
30	COc1ccc(C23NCCN2C(=O)c2ccccc23)cc1 (stereo not given)	-5%
31	Fc1ccc(-c2nnc3sc(C4COc5ccccc5O4)nn23)cc1 (stereo not given)	19%
32	CCC1CN(C(=O)N2CCC(C(=O)O)CC2)c2cc(C)ccc2O1 (stereo not given)	1%
33	CCCCOC(=O)CSc1nnc(-c2ccccc2)o1	-2%
34	COc1ccc([C@H]2CC(=O)C=C(c3ccccc3Oc3ccccc3)C2)cc1	6%
35	c1ccc(Oc2cccc(NC3=NCCC3)c2)cc1	0%
36	COc1ccc(NC(=O)c2cc(S(=O)(=O)N3CCOCC3)ccc2N2CCOCC2)cc1	8%
37	Cc1ccc(C(=O)N(C)CCOc2ccccc2)cc1S(=O)(=O)N1CCOCC1	9%
38	Cc1ccc(C(=O)OCC(=O)Nc2ccc(N(C)C)cc2)cc1NC(=O)c1ccco1	-14%
39	CC(C)(C)c1ccccc1NC(=S)NC1CCCCC1	-3%
40	COc1ccc(C2CC(=O)Oc3cc(C)c(Cl)c(C)c32)cc1 (stereo not given)	7%&-2%
41	Cc1ccc(OCc2ccc(C(=O)NCC3CCCO3)cc2)cc1 (stereo not given)	13%
42	CC(C)CNc1ncnc2onc(-c3ccc(Cl)cc3)c12	-22%
43	CCc1ccc(N2C(=O)C3C(C2=O)N2CCCN2C3c2ccccc2)cc1 (stereo not given)	-4%
44	C=CCn1c(SCc2ccccc2)nc2c1c(=O)[nH]c(=O)n2C	?
45	COc1ccc2[nH]c(=O)c(CN(C(=O)C3CCCO3)c3ccc(C)cc3)cc2c1 (stereo not given)	-1%
46	CCOC(=O)/C(=N\Nc1cc(Cl)ccc1Cl)N1CC(C)OC(C)C1 (stereo not given)	-4%
47	CC(=O)N(C)c1nc(-c2ccc(Cl)cc2)cs1	-4%
48	Cc1c(CN2CCC(n3nccc3NC(=O)CCc3ccccc3)CC2)cnn1C	5%
49	Cc1ccc(NC(=O)C2CCN(S(=O)(=O)c3c(C)noc3/C=C/N(C)C)CC2)cc1	4%
50	CCn1c(=O)c2cc(C(=O)NCC(OC)OC)sc2c2ccccc21	-3%
51	COc1ccc(S(=O)(=O)N2CCC(C(=O)N3CCN(c4ccccc4OC)CC3)CC2)cc1	-3%
52	CCn1cc(C(=O)NCc2ccccc2OC)c(=O)c2ccc(C)nc21	9%
53	C=CCN(C(=O)c1csnn1)C(C(=O)NC1CCCCC1)c1ccccc1 (stereo not given)	9%
54	Cc1ccc(C(NC(=O)Cc2cccs2)C(=O)Nc2ccc(C(C)C)cc2)cc1 (stereo not given)	-9%
55	COC(=O)c1cc(=O)n(-c2ccc(C(F)(F)F)cc2)[nH]1	0%
56	Cc1onc(-c2ccccc2Cl)c1C(=O)N1CCN(c2cccc(Cl)c2)CC1	-18%
57	O=C(NC(=S)NCC1CCCO1)c1ccccc1Br (stereo not given)	1%
58	COc1ccc(S(=O)(=O)N2CCCCC2)cc1NC(=O)Cn1c(=O)cnc2ccccc21	-14%
59	CC(C)NC(=O)C(c1ccc(F)cc1)N(Cc1ccco1)C(=O)CCC(=O)Nc1ccccn1 (stereo not given)	18%
60	CC(SCCc1ccccn1)C(=O)O (stereo not given)	10%
61	ON1C(c2ccc(Cl)cc2Cl)N(O)[C@H]2CCCC[C@H]21 (stereo not given in full)	4%
62	CC(C)(C)NS(=O)(=O)c1cc2c3c(c1)CCN3C(=O)CC2	-25%
63	Cc1sc2c(c1C)CN(Cc1ccncc1)CN2C(=O)c1ccco1	9%
64	CC(=O)Nc1cc2oc3ccccc3c2cc1[N+](=O)[O-]	-11%
65	COc1ccc(/C=N/N(C)C2=NS(=O)(=O)c3ccccc32)cc1OC	4%
66	CCN(CC(=O)Nc1c(F)cccc1F)C(=O)c1ccc(OCc2c(C)noc2C)cc1	-10%
67	Cc1sc2nc(SCC(=O)Nc3cccc(C(=O)O)c3)[nH]c(=O)c2c1C	-11%
68	O=C(CCNS(=O)(=O)c1ccccc1C(F)(F)F)Nc1ccncc1	5%
69	O=C(c1ccco1)c1nc2c(n1O)CCCCC2	-2%
70	CN1C(C)(C)CC(=NOC(=O)c2ccccc2)CC1(C)C	-6%
71	COc1ccc(N(CC(=O)N2CCCC2)S(C)(=O)=O)cc1	1%
72	Cc1cc(C(=O)COC(=O)c2ccc(NC(=O)CC#N)cc2)c(C)n1CCc1ccc(F)cc1	-1%

More structures
#	canonical_smiles	VDR inhibitor
73	O=Cc1ccc(-c2ccccc2C(=O)O)o1	-7%
74	O=C(NCCCN1CCOCC1)c1cc(-c2ccc(Br)cc2)nc2ccccc12	-7%
75	CSc1nnc(-c2ccc(O)cc2)n1C	-15%
76	O=C(c1ccc(Br)o1)N(c1ccccn1)C1CCCCC1	-1%
77	Cn1c(SCc2cccc3ccccc23)nnc1-c1ccco1	5%
78	CCOC(=O)Cn1c(=O)oc2cc(S(=O)(=O)N3CCN(c4ccccn4)CC3)ccc21	5%
79	COc1cc2nc(Nc3ccc(C)c(Cl)c3)nc(N)c2cc1OC	23%
80	Fc1ccccc1-c1nc(-c2ccccc2)oc1NC1CCCCC1	-9%
81	COc1ccccc1CNc1cc(-c2ccccc2OC)ncn1	-1%
82	CCc1cccc(NC(=O)Cn2cccc2)c1	5%
83	O=C(COC(=O)CNS(=O)(=O)c1ccc(Br)cc1Cl)NCCc1ccccc1	-15%
84	COc1cc(/C=N/N2C(=O)CSC2=S)cc(Br)c1O	?

Entries by screen from the entries so far.
Entries 77–84 in VDR inhibitor: 5%, 5%, 23%, -9%, -1%, 5%, -15%, ?

(list continues)
#	canonical_smiles	VDR inhibitor
85	O=S(=O)(NCCS(=O)(=O)N1CCN(c2ccccc2F)CC1)c1ccc(Cl)cc1	10%
86	Cc1ccc(CNC(=O)c2c(C)cc(=O)oc2C)cc1	20%
87	CC1=CC(=O)C(C(C)C)=C/C1=N\OC(=O)c1cccc2nc(C)oc12	-15%
88	Cc1cccc(NC(=O)C2CCCN(S(=O)(=O)c3ccc(Br)s3)C2)c1 (stereo not given)	-13%
89	COC(=O)C1Sc2[nH]c(=O)sc2C2c3ccccc3OC(=O)C12 (stereo not given)	-1%
90	Cn1nccc1C(=O)N1CCN(c2cccc(C(F)(F)F)c2)CC1	-5%
91	Cc1nccn1CC(O)COc1ccc(Cl)cc1Cl (stereo not given)	-6%
92	CCOC(=O)CC1C(=O)NCCN1c1nc2ccc(C)cn2c(=O)c1/C=C1\SC(=S)N(CC(C)C)C1=O (stereo not given)	1%
93	O=[N+]([O-])c1cc(S(=O)(=O)N2CCCC2)ccc1N/N=C1/CCCc2ccccc21	-18%
94	Cc1cc(C)cc(N(C(=O)C2CCCC2)C2C=CS(=O)(=O)C2)c1 (stereo not given)	-1%
95	Cc1ccc(C)c(S(=O)(=O)Nc2cc(SCC(=O)O)c(O)c3ccccc23)c1	22µM*
96	COc1ccccc1-c1nc(S(=O)(=O)c2ccc(Cl)cc2)c(N(C)C)o1	-14%
97	Cc1cc(-c2n[nH]c(=S)n2Cc2ccco2)nn1C	?
98	O=C(COC(=O)c1ccccc1Oc1ccccc1)NC1CCS(=O)(=O)C1 (stereo not given)	1%
99	COc1ccc(-c2ccc(=O)n(Cc3ccccc3)n2)cc1	-4%
100	COc1ccc(/C=N/NC(=O)c2cc(O)c(O)c(O)c2)cc1Cn1cc([N+](=O)[O-])cn1	-15%
101	CN(C)CCCN(C(=O)c1ccc(S(=O)(=O)N(C)C2CCCCC2)cc1)c1nc2ccc(F)cc2s1	-5%
102	O=c1c(-c2cccc3ccccc23)[n+]([O-])c2ccccc2n1O	-16%
103	Cc1nn2c(-c3ccc(F)cc3)ccnc2c1Cl	-11%
104	COc1ccc(CNC(=O)Cc2ccc(NC(=O)C3=C(C)OCCS3)cc2)cc1	1%
105	C/C(=N/NC(=O)c1ccc(Cn2cccn2)o1)c1cccc(NC(=O)c2ccncc2)c1	-8%
106	CCCn1c(SCC(=O)NC)nnc1C(C)C	13%
107	CCCCCCSc1nnc(N)s1	1%
108	CCOc1cc2[nH]c(=O)n(CCC(=O)NCCc3ccccc3)c(=O)c2cc1OCC	-8%
109	CCC(C(=O)NC1CCCC1)N(C(=O)Cn1nnc(-c2ccc(C)o2)n1)c1cccc(OC)c1 (stereo not given)	-11%
110	NC1CCN(c2c(F)cc3c(=O)c(C(=O)O)cn(C4CC4)c3c2Cl)C1 (stereo not given)	-18%
111	CN1CCN(S(=O)(=O)c2ccc(NC(=S)NC(=O)C3CCCC3)cc2)CC1	0%
112	Cc1cccc(Nc2nc(N)nc(CN3CCN(C)CC3)n2)c1	-7%
113	O=C1CCN(Cc2ccccc2)C=C1c1ccc2ccccc2c1	-13%
114	O=C(NC(Cc1ccccc1)C(=O)N1CCCCC1)c1ccccc1 (stereo not given)	-4%
115	O=C(Nc1ccccc1Cl)OCc1cncs1	1%
116	Cc1ccc(-c2c(C(=O)N/N=C/c3cccs3)nnn2-c2nonc2N)cc1	-18%
117	CO/N=C/c1ccc(N2CCCC2)c([N+](=O)[O-])c1	-4%
118	N#Cc1c(N)n(CCNC(=O)c2cccs2)c2nc3ccccc3nc12	8%
119	Cn1c(=O)[nH]c(=O)c2c1nc(N1CCOCC1)n2Cc1ccccc1	-3%

Grouped by structure: the entries above with a thiophene ring, fused or not (seven)
#	canonical_smiles	VDR inhibitor
50	CCn1c(=O)c2cc(C(=O)NCC(OC)OC)sc2c2ccccc21	-3%
54	Cc1ccc(C(NC(=O)Cc2cccs2)C(=O)Nc2ccc(C(C)C)cc2)cc1 (stereo not given)	-9%
63	Cc1sc2c(c1C)CN(Cc1ccncc1)CN2C(=O)c1ccco1	9%
67	Cc1sc2nc(SCC(=O)Nc3cccc(C(=O)O)c3)[nH]c(=O)c2c1C	-11%
88	Cc1cccc(NC(=O)C2CCCN(S(=O)(=O)c3ccc(Br)s3)C2)c1 (stereo not given)	-13%
116	Cc1ccc(-c2c(C(=O)N/N=C/c3cccs3)nnn2-c2nonc2N)cc1	-18%
118	N#Cc1c(N)n(CCNC(=O)c2cccs2)c2nc3ccccc3nc12	8%
